RE007 growth inh: less growth of the S. pombe RE007 Vpr strain; hit rate 0.21% among 360,000; S. pombe RE007 Vpr strain, BacTiter-Glo ATP luminescence, 24 h; control for the full effect not named in the record; Potency, µM (top dose mostly 92.2 µM), inactives show at the top dose activity change, negative = less growth; active = well fitted falling curve with a large enough effect; inconclusive = small, poorly fitted or top-dose-only effect; inactive = no such curve, though single readings can be large or run the other way;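 further: on the % scale 0 is the no-effect control and ±100 the full control effect; nearly all actives have a fitted effect of over 50% in size; the assay follows cell death caused by Vpr and the record does not say whether a fall means rescue or toxicity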
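Fission yeast RE007 carrying one integrated HIV-1 vpr copy, seeded at OD 0.01 in PMG+AL medium with 23 nL pinned compound. Grown 24 h at 30 degrees; viability read by BacTiter-Glo luminescence after 5 min.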
Cruzain inh Det: inhibitors of Trypanosoma cruzi cruzain with detergent. AID 1478. purified cruzain, Z-FR-AMC fluorescence, 0.01% Triton. Potency, µM, for inactives: max response, negative = inhibition, usual class: inhibitors. P25779. hit rate 0.43% among 200,000; active means well fitted curve in the direction sought with a large enough effect; inconclusive means small, poorly fitted or top-dose-only effect, or another doubt; inactive means no such curve, though single readings can be large; an effect the other way counts as inactive or inconclusive;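 further: plate controls were neutral wells for no effect and buffer without enzyme for full effect; nearly all actives have a fitted effect of over 40% in size; top concentration of the series not given in the record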
Target sequence (P25779 123-467 limits assumed): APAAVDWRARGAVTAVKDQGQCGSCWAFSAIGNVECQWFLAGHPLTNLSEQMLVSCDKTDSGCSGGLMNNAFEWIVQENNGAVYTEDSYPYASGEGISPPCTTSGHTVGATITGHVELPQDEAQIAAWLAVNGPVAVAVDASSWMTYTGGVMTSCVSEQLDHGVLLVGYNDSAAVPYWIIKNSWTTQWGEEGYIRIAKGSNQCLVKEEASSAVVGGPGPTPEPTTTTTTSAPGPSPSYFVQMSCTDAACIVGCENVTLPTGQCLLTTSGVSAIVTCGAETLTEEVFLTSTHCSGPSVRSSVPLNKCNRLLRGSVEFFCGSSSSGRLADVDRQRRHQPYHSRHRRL
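Detergent-containing arm of a paired screen for aggregation-based inhibition: 0.01% Triton X-100 present. Cruzain at 1.5 nM cleaved 2 uM Z-FR-AMC at pH 5.5 with 5 mM DTT; AMC fluorescence gain over 60 s measured activity.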
NS1 function inh: influenza NS1 inhibition. hit rate 0.4% among 270,000. Potency, µM (highest dose often 46.1 µM), inactives show at the highest dose activity, positive = more growth. AID 2326. S. cerevisiae slowed by influenza A NS1, growth recovery by OD600; further: actives are rising curves; nearly all actives have a fitted effect of over 50% in size
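In this qHTS, NS1 from influenza A is expressed in budding yeast, where it slows growth. Cells are switched from glucose to 2% galactose medium (pH 6.0, -URA), treated with compound, and growth recovery is read at OD600.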
StopGo reporter: FMDV 2A StopGo reporter, luciferase signal; human cells with a luciferase reporter of 2A StopGo recoding; control for the full effect not named in the record; Potency, µM (top dose mostly 57.9 µM), for the others: top-dose signal change, negative = less light; hit rate 1.2% among 410,000; AID 1159524; active = well fitted falling curve with a large enough effect; inconclusive = small, poorly fitted or top-dose-only effect; inactive = no such curve, though single readings can be large or run the other way; tested in HEK293T cells; further: on the % scale 0 is the no-effect control and ±100 the full control effect; nearly all actives have a fitted effect of over 45% in size; luciferase light after 4 h
Lassa entry inh: Lassa virus entry inhibition. hit rate 1.2% among 300,000. Lassa virus pseudotype entry inhibition, cell reporter; control for the full effect not named in the record. AID 540256. Potency, µM (top dose mostly 37.9 µM), inactives show at the highest dose activity change, negative = inhibition, usual class: inhibitors; active means well fitted inhibition curve with a large enough effect; inconclusive means small, poorly fitted or top-dose-only effect, or effect the other way; inactive means flat fitted curve, though single readings scatter; tested in HEK293 cells; further: on the % scale 0 is the no-effect control and ±100 the full control effect; nearly all actives have a fitted effect of over 50% in size; luciferase read-out
Marburg entry inh: inhibitors of Marburg virus binding or cell entry | Marburg virus pseudotyped entry inhibition, cell reporter; control for the full effect not named in the record; about a third of the inactives were read at about 46 µM | Potency, µM (top dose mostly 37.8 µM), without a hit: top-dose activity change, negative = inhibition, actives largely listed as inhibitors | hit rate 1.8% among 300,000; active = well fitted inhibition curve with a large enough effect; inconclusive = small, poorly fitted or top-dose-only effect, or effect the other way; inactive = flat fitted curve, though single readings scatter; tested in HEK293 cells; about a fifth of its hits are not listed in these tables; further: on the % scale 0 is the no-effect control and ±100 the full control effect; luciferase read-out
SARS PLpro yeast: blocks SARS-CoV papain-like protease in a yeast assay | S. cerevisiae expressing SARS-CoV PLpro, growth rescue; control for the full effect not named in the record | hit rate 0.19% among 330,000 | AID 485353 | Potency, µM (highest dose often 32.9 µM), for the others: at the highest dose activity, positive = growth rescue; further: 0% is about no effect; nearly all actives have a fitted effect of over 55% in size; growth read by luminescence after 48 h
Cruzain inh noDet: blocks cruzain activity in detergent-free assay; Potency, µM, for inactives: max response, negative = inhibition, usual class: inhibitors; hit rate 2.3% among 200,000; P25779; purified cruzain, Z-FR-AMC fluorescence, no detergent; active means well fitted curve in the direction sought with a large enough effect; inconclusive means small, poorly fitted or top-dose-only effect, or another doubt; inactive means no such curve, though single readings can be large; an effect the other way counts as inactive or inconclusive;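 further: plate controls were enzyme without inhibitor for no effect and buffer without enzyme for full effect; nearly all actives have a fitted effect of over 40% in size; top concentration of the series not given in the record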
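Detergent-free condition (0.00005% Triton X-100) in acetate buffer pH 5.5 with DTT. 1.5 nM enzyme and compound were pre-mixed 15 min, then 2 uM Z-FR-AMC substrate added; reaction progress from fluorescence change between first and third reads (60 s).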
Starred values were filed as active, the others as inactive; u = inconclusive; x = no result given; & = joins results of further samples; ! = repeats disagree; [ ] = dose if it differs, or a comment. Unless noted, the call rests on the fitted dose curve; in most records, active means well fitted rising curve with a large enough effect; inconclusive means small, poorly fitted or top-dose-only effect; inactive means no such curve, though single readings can be large or run the other way. Potency means the concentration at half of the fitted maximal effect.

SMILES | RE007 growth inh | Cruzain inh Det | NS1 function inh | StopGo reporter | Lassa entry inh | Marburg entry inh | SARS PLpro yeast | Cruzain inh noDet
O=C(NC(=S)N1CCCCC1CO)c1cc(Br)ccc1Cl (stereo not drawn) | -15% | x | x | -1% | 26% | 7%[46.1 µM] | -4% | x
CCc1ccc(NC(=O)c2ccc(F)c(S(=O)(=O)NCCc3ccc(OC)c(OC)c3)c2)cc1 | x | -2.7% | x | u | u | x | x | u
COc1cccc(C(c2sc3nc(-c4ccco4)nn3c2O)N2CCOCC2)c1 (stereo not drawn) | x | -0.3% | x | 3% | 9%[46.1 µM] | x | x | 0%
C=CCN(c1ccc(C(=O)NC(C)C)cc1)S(C)(=O)=O | 4% | -2.9% | -1% | 2% | 0% | 1% | 2% | 2%
COc1cc(NC(=O)Nc2c[nH]c(=O)[nH]c2=O)cc(OC)c1OC | x | 1.5% | x | -21% | 2%[46.1 µM] | x | x | -3%
CCC(C(=O)Nc1cccnc1Cl)c1ccccc1 (stereo not drawn) | 10% | x | -12% | -21% | x | x | 4% | x
CCN(CC)c1ccc(NC(=O)CCNC(=O)c2ccco2)cc1 | -8% | -1.6% | 14% | 8% | 13% | 1% | -10% | -6%
O=[N+]([O-])c1ccc2c(c1)ncn2-c1ccccc1 | -3% | -5.4% | -1% | -2% | u | 17% | 29% | 2%
C=CCN1C(=O)CSc2ccc(C(=O)NC3CCCCC3)cc21 | -3% | x | -12% | u | x | x | -5% | x
Nc1nnc(CCc2ccccc2)s1 | 2% | -1.1% | u | 7% | 6% | 0% | 6% | -9%
Cc1nc(-c2ccc(S(=O)(=O)Nc3cccc(S(N)(=O)=O)c3)s2)cs1 | -26% | x | 4% | 2% | 8% | -3% | 0% | x
C=CCOC(=O)c1ccccc1N | -6% | 2.6% | x | 0% | x | x | -1% | 0%
Cc1ccccc1OCCC(=O)OCC(=O)Nc1ccc2[nH]c(=O)[nH]c2c1 | 3% | x | x | -23% | -14% | -14% | 4% | x
CN1c2cc(Cl)ccc2-c2nc(SCC(=O)Nc3ccc(F)cc3F)ncc2S1(=O)=O | x | 1.8% | x | u | -7%[46.1 µM] | x | x | 5%
O=C(NC1CC1)C1CCN(C(=O)c2ccccc2Cl)CC1 | -4% | x | 0% | 3% | -12%[46.1 µM] | 0%[46.1 µM] | -2% | x
O=C(CCNC(=O)c1ccccc1)NNC(=O)COc1ccccc1Cl | 4% | x | x | 13% | 1%[46.1 µM] | 4%[46.1 µM] | -2% | x
Cc1ccc(C(=O)C(C)OC(=O)CCN2C(=O)C3C4C=CC(C5CC45)C3C2=O)cc1 (stereo not drawn) | -5% | x | -4% | u | x | x | 0% | x
NS(=O)(=O)c1ccc(N=Nc2c(O)c(C(=O)O)cc3ccccc23)cc1 | x | -4.6% | -3%&14% | -10% | x | x | 1% | 5%
COc1ccccc1Nc1nnc(SCC(=O)Nc2cc(C)on2)s1 | -3% | -4.3% | -3% | -9% | 4% | 16% | -5% | -5%
C=CCn1c(C)cc(C(=O)CSc2nc3ccccc3[nH]2)c1C | 2% | 7.0% | 0% | -85% | 4.6µM* | u | -12% | -7%
N#Cc1cnc(Sc2ccccc2)nc1 | -10% | x | x | -13% | -25% | -1% | 1% | x
Cc1ccccc1NC(=O)CN1CCN(C)CC1 | 6% | x | 8% | 0% | 5% | u | 12% | x
O=C(COC(=O)c1ccc([N+](=O)[O-])s1)Nc1ccc(Cl)cn1 | u | -7.9% | -21% | 19% | -12% | 0% | 4% | u
O=C(c1cc2cc(Br)ccc2oc1=O)N1CCN(c2ccccn2)CC1 | 4% | -10% | -3% | 12% | -12%[14.3 µM] | -9% | -1% | -9%
COC(=O)[C@@H]1C[C@@]2(O)[C@@H](O)[C@@H](O)[C@@H](O)C[C@H]2N1Cc1ccc(-c2ccccc2)cc1 | -13% | -10% | 3% | -15% | x | 2% | 0% | -4%
Cc1nccn1-c1ccc(C=O)cc1 | 4% | x | 4% | 11% | -11% | 3% | 0% | x
c1ccc2c(c1)nc(NCc1ccc3c(c1)OCO3)n2CCN1CCOCC1 | -4% | x | 1% | -17% | 7% | -10% | -1% | x
Cc1ccc(-c2cc(C(=O)N/N=C/c3c(C)nn(C)c3C)c3ccccc3n2)c(C)c1 | -22% | -12% | u | -20% | -1% | -1% | 3% | u
CSCC[C@H](NC(=O)Cc1c(C)c2c(cc(C)c3c(C)coc32)oc1=O)C(=O)O | 5% | x | 8% | 0% | 2%[46.1 µM] | u | 15% | x
CCc1cc(C(=O)NNC(=S)Nc2ccccc2C)cs1 | 19% | -1.8% | 14% | 52%[activator] | u | u | -27% | 2%
CCc1nc2nc(C)c(NS(=O)(=O)c3ccc(C)cc3)c(=O)n2[nH]1 | x | -0.6% | x | -2% | 28%[46.1 µM] | 2%[46.1 µM] | x | 6%
COc1cccc(OC)c1C(=O)N1CCN(c2c(Cc3ccccc3)c(C)nc3ncnn23)CC1 | -2% | -1.7% | -1% | -9% | -35%[14.3 µM] | 5% | 0% | 13%
COc1ccc(CC(=O)N2CCCC2)c(OC)c1 | 8% | x | 0% | 9% | 5% | 14%[46.1 µM] | 1% | x
Cc1cnc(C(=O)OCC(=O)N2c3ccccc3NC(=O)C2(C)C)cn1 | 18% | 2.8% | -3% | -9% | -16% | 25% | 4% | -9%
CC(=NCCc1ccccc1)C1=C(O)CSC1=O | 8% | 3.6% | -5% | 16% | 6% | u | 11% | -1%
CS(=O)(=O)N(CC(=O)NCc1ccccc1Cl)c1cccc([N+](=O)[O-])c1 | 9% | x | 0% | -7% | x | x | 1% | x
O=C(CCc1ccccc1)Nc1nnc(-c2ccccn2)o1 | -19% | -0.2% | -5% | 4% | 10% | -25% | -2% | 1%
CCOCCc1nnc(NC(=O)CS(=O)(=O)Cc2ccccc2)s1 | 44% | x | 3% | u | -20%[46.1 µM] | -22%[46.1 µM] | 1% | x
O=C(CSc1ncnc2c1nnn2Cc1ccccc1F)N1CCN(c2ccccc2)CC1 | -12% | -4.2% | 9% | 35µM* | u | -8% | -4% | 9%
CCc1ccc(S(=O)(=O)c2cn(CC(=O)Nc3cccc(C)c3)c3ccc(Cl)cc3c2=O)cc1 | x | -2.4% | x | -5% | 11%[46.1 µM] | 6%[46.1 µM] | x | -4%
CCN1CCN(Cc2ccc(NC(=O)c3ccc(C)c(NC(=O)c4cccc5[nH]ccc45)c3)cc2C(F)(F)F)CC1 | 4%&-13% | x | -8% | 18µM*! | x | x | 0% | x
COc1ccc(Cc2nnc(SCC(=O)NCc3ccco3)o2)cc1 | -3% | 3.1% | -1% | 13% | 14% | u | -3% | 13%
Cc1cccc(CN2CC=C(c3noc(CCC(=O)Nc4ccc(C)c(F)c4)n3)CC2)c1 | x | 0.6% | x | -6% | 3%[46.1 µM] | x | x | 7%
CC(C)Cn1cc(C(=O)N2CCOCC2)c2c3ccccc3n(C)c2c1=O | 7% | -6.5% | 0% | 2% | 1% | -18% | 7% | -1%
O=Cc1ccccc1OCCOc1ccccc1C=O | 3% | -5.1% | -30% | x | u | -26% | -53% | -9%
CCOc1cc(C2c3c(oc4ccccc4c3=O)C(=O)N2Cc2ccc(OC)cc2)ccc1O (stereo not drawn) | x | 0.6% | x | 24% | 1%[46.1 µM] | u | x | 7%
CCOC(=O)/C=C1\CC(C(=O)OCC)Oc2c(OC)cccc21 (stereo not drawn) | -10% | -1.2% | x | -18% | x | x | 6% | 20%
CCN(CC)c1nc(-c2cccc(OC)c2O)nc2ccccc12 | u | -7.7% | -11% | u | u | u | -6% | 12%
CCc1noc(C)c1C(=O)Nc1ccc(F)c(F)c1F | 5% | x | x | -3% | 16% | 9% | -8% | x
CC1=C(c2ccc(F)cc2)S(=O)(=O)N=C1N1CCC(C(=O)NCCc2ccccc2C)CC1 | x | -1.5% | x | -27% | 1%[46.1 µM] | x | x | -2%
COC(=O)c1nnn(CC(=O)NC(=O)Nc2ccccc2)c1C(=O)OC | -2% | -0.2% | 18% | -11% | u | 11% | 12% | 12%
O=C(CCN1C(=O)c2cccc3cccc(c23)C1=O)N1CCOCC1 | -2% | x | x | 64%[activator] | x | u | 1% | x
CCOC(=O)N1CCC(NC(=O)c2ccc3nc(N4CCOCC4)sc3c2)CC1 | 19% | -2.9% | -5% | -19% | 9% | 15% | 0% | 3%
CCS(=O)(=O)c1nc(S(=O)(=O)c2ccc(C)cc2)c(N2CCC(C)CC2)s1 | 9% | x | -22% | -19% | x | x | 0% | x
O=C(CN1CCN(c2ccc([N+](=O)[O-])cc2)CC1)Nc1ccccn1 | 6% | -13% | 13% | u | -19% | -31%[46.1 µM] | -3% | -20%
CCOC(=O)NC(=O)/C(C#N)=C\c1ccccc1 | -1% | x | x | 1% | 0% | -14%[46.1 µM] | 1% | x
CCC(=O)c1ccc(OC)c(OC)c1OCc1ccccc1 | -24% | x | x | -19% | 0% | -10% | x | x
CC(=O)c1ccc(-n2nnnc2SCC(=O)N2CCN(C(=O)c3ccco3)CC2)cc1 | 1% | 0.8% | -1% | -16% | -15% | 4% | 3% | -10%
O=C(O)CSc1nnc(-c2ccc3c(c2)OCO3)n1-c1ccccc1 | 6% | x | 5% | 15% | 23%[46.1 µM] | 3%[46.1 µM] | 14% | x
CCOC(=O)Cn1c(=NC(=O)C(C)(C)C)sc2cc([N+](=O)[O-])ccc21 | 13% | -4.6% | -11% | 0% | -18% | 22% | -9% | -8%
CN1CCN(S(=O)(=O)c2cc([N+](=O)[O-])ccc2Cl)CC1 | -20% | x | 5% | 2% | x | 0%[46.1 µM] | 0% | x
Cc1ccc(OCC(=O)N2CCN(C(=O)c3cccs3)CC2)cc1 | 6% | 5.4% | -7% | 1% | 8% | 8% | -3% | 5%
Cn1c(SCc2cccc(Br)c2)nnc1-c1ccncc1 | 3% | x | -1% | 18% | x | x | -12% | x

Source: PubChem (National Center for Advancing Translational Sciences (NCATS))
